Screens as filed in PubChem BioAssay.
HPGD block: blocks human HPGD enzyme activity. P15428. purified HPGD, NADH fluorescence kinetic, PGE2 substrate. Potency, µM, inactives show at the top dose activity change, negative = inhibition, actives largely listed as inhibitors. hit rate 4.3% among 150,000; active = well fitted inhibition curve with a large enough effect (not every such curve was filed as active); inconclusive = small, poorly fitted or top-dose-only effect, or another doubt; inactive = no such curve, though single readings can be large or run the other way;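 further: top concentration of the series not given in the record; plate controls included wells without enzyme; inactives centre near -10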
Target sequence (P15428 whole entry, looked up): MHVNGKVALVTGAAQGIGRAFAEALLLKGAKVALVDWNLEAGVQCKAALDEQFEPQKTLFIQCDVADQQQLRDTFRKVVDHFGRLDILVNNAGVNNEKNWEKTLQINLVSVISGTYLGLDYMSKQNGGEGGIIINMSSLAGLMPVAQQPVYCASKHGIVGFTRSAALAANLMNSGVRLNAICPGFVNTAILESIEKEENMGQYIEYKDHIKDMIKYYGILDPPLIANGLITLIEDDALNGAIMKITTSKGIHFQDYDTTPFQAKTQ
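NADH formation kinetics: reaction with 30 uM PGE2 and 1 mM NAD+ (final), 20 nM enzyme, Tris-HCl pH 8 with Tween 20, after 15 min compound preincubation at room temperature. Fluorescence change, last versus first of five reads.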
An asterisk follows results filed as active; ? = inconclusive; & = joins results of further samples. On the % scale 0 is the no-effect control and ±100 the full control effect; potency means the concentration at half of the fitted maximal effect. An excerpt, so the mix of outcomes need not match the whole.

SMILES | HPGD block
CC(=O)OC1C2CCC3C1(CC(O)[C@@]1(O)[C@@H](CC(O)C1(C)C)[C@]3(C)O)C[C@@]2(C)O (stereo partly specified) | -1%
CCOc1cc(-c2ccc(N)c(OCC)c2)ccc1N | ?
O=C1NC(=O)[C@]2(Cc3ccccc3N3CCN(c4ccccc4)CC32)C(=O)N1Cc1ccccc1 (stereo partly specified) | -17%
CC(C)n1c(=O)c(C=Nc2ccc(Br)cc2)c(O)n(Cc2ccco2)c1=O | ?
CC1(C)N([O-])[N+](=O)C1(C)Br (stereo unspecified) | 32µM*
COc1ccc(C=O)cc1O | -11%
OC1CCCCC1N1CCC(c2ccccc2)CC1 (stereo unspecified) | -11%&4%&-5%
CC12CN3CC(C)(CN(C1)C3c1ccncc1)C2=O (stereo unspecified) | -9%
COc1ccc2[nH]cc(CCN)c2c1 | -4%&-12%&-7%
Cc1ccccc1N | 0%&-9%
CCN(CC)c1ccc(/C=C2\C(=O)NC(=O)N(Cc3ccco3)C2=O)cc1 | 16µM*
CCC(C)OC(=O)c1c(N)n(Cc2cccs2)c2nc3ccccc3nc12 (stereo unspecified) | ?
CCCCCCOc1ccc(CN2CCN(CCO)CC2)cc1 | -9%
c1ccc(-c2[nH]c(-c3ccccc3)[n+](CC3CO3)c2-c2ccccc2)cc1 (stereo unspecified) | -19%
COc1ccc(C(=O)c2c(C)n(CCN3CCOCC3)c3cc(I)ccc23)cc1 | -9%
CCN(CC)C(=O)c1ccc(NC(=O)Cn2nc(C)c3ccccc3c2=O)cc1 | 10µM*
O=C(NC1CONC1=O)OCC(Cl)(Cl)Cl (stereo unspecified) | 0%
C[N+]1(C)[C@@H]2CC[C@H]1CC(OC(=O)C(CO)c1ccccc1)C2 (stereo partly specified) | -4%
CC(C)C(=O)CP(=O)(O)O | -10%
C(=C/c1ccccc1)/CN1CCN(CCOC(c2ccccc2)c2ccccc2)CC1 | -9%
c1ccc2c(c1)sc1ccccc12 | -12%
Cc1cc(=O)n(-c2ccccc2)n1-c1ccccc1 | -2%
CCOP(=O)(OCC)C(NC(=O)c1ccc(C)cc1)C(Cl)(Cl)Cl (stereo unspecified) | -6%
CC1=[N+]([O-])C2(N)CCc3nonc3C2(O)C1 (stereo unspecified) | -10%
CCn1c(O)c(C=NCCc2c[nH]c3ccccc23)c(=O)[nH]c1=O | -10%
Continuation.
SMILES | HPGD block
Cc1ccc2nc(N3CCC(C(=O)N4CCC5(CC4)OCCO5)CC3)sc2c1 | -10%
CCc1ccc(N2C(=O)NC(=O)/C(=C/c3cccn3CCOc3ccc(C(C)CC)cc3)C2=O)cc1 (stereo unspecified) | -14%
C=CC1CN2CCC1CC2[C@@H](OC(=O)c1ccc(OC)cc1)c1ccnc2ccccc12 (stereo partly specified) | -6%
O=C(O)C1Sc2[nH]c(=O)sc2C2c3cc(Cl)ccc3OC(=O)C12 (stereo unspecified) | ?
CCOC(=O)C1CCCCC12C(C#N)=C(N)Oc1n[nH]c(C)c12 (stereo unspecified) | 3%
COc1ccc2c(c1)[C@@]13CCCC[C@H]1[C@@H](C2)NCC3 | 4%
CN1CCc2nc3sc(C(=O)NC(C)(C)C)c(N)c3cc2C1 | -2%
CCC1/C=C/C=CCC(C)C(O)[C@@](C)(O)C(=O)C(C)C(O)C(C)C(=O)C(C)C(O)C(C)C=CC(=O)O[C@H]2C(C)C(CC1)O[C@]1(CCC(C)C(CC(C)O)O1)C2C (stereo partly specified) | -21%
Nc1nc(N)c(Cn2ccnc2)c(=O)[nH]1 | 3%
O=C1C2CCN(CC2)C1(CO)CO | -2%&-5%&-8%
O=C(Oc1ccc([N+](=O)[O-])cc1)N1CCC(N2CCCCC2)CC1 | -7%&-6%
O=c1[nH]c(=O)n(-c2ccccc2Cl)c(O)c1C=NCCN1CCCCC1 | -22%
CO[C@H]1[C@@H](OC)CC(OC2OC(CO)C(O)C(O)C2O)/C(=C\C#N)[C@@H]1O (stereo partly specified) | -11%
COc1cc2c(cc1OC)[C@@]13CCN4CC5=CCOC6CC(=O)N2C1[C@H]6[C@@H]5C[C@@H]43 (stereo partly specified) | -8%
CN[C@@H](C)[C@H](O)c1ccccc1 | 0.79µM*
CN1CCCC2(CCN(C(=O)c3csnn3)CC2)C1 | -6%
Cc1sc2c(c1C)C(c1cccs1)=NCC(=O)N2CC(=O)NCc1cccs1 | -16%
O=P(NCc1ccccc1)(Oc1ccccc1)Oc1ccccc1 | -14%
O=C(c1cc2cc3ccc(Cl)cc3nc2o1)N1CCC2(CC1)OCCO2 | ?
Clc1ccc(N2CC3CCC(C2)N3)nn1 | -11%
C=CCOC(C)=O | -8%
COCCOC(=O)c1c(C)oc2ccc(OC(=O)N(C)C)cc12 | -13%
CC(=O)N1CN2CN(C(C)=O)CC(C(=O)c3ccccc3)(C2)C1 | -5%
Cc1ccc2c(c1)CC1(CN2C)C(=O)NC(=O)N(CCc2ccccc2)C1=O (stereo unspecified) | -17%
CC/C=C\C/C=C\C/C=C\C/C=C\C/C=C\CCCC(=O)NCC(=O)O | -7%
Following part.
SMILES | HPGD block
CN1C(=O)CCS(=O)(=O)[C@@H]1c1ccc(Cl)cc1 | -10%
CCCCn1c(O)c(C(CC)=Nc2ccc(C(=O)O)cc2)c(=O)[nH]c1=O | -17%
CCOC(=O)c1ccc(N=Cc2c(O)n(-c3ccccc3F)c(=S)[nH]c2=O)cc1 | -7%
CC(=O)c1ccc(OC(NC(=O)Cc2ccccc2)C(Cl)(Cl)Cl)cc1 (stereo unspecified) | 13µM*
CN1CCN(C(=O)COc2ccc(S(=O)(=O)N(C)Cc3ccccc3)cc2)CC1 | 14µM*
CC(=O)O[C@H]1CC[C@@]2(C)C(=CC[C@@H]3[C@H]2CC[C@]2(C)C(=O)CC[C@H]32)C1 | -2%
CCCCCCC(=O)c1c(O)n(-c2ccccc2OC)c(=O)[nH]c1=O | 4%
NC(=NCc1ccc(Cl)cc1)SCCCc1cnc[nH]1 | -8%
CCCCn1c(O)c(/C=N/N2CCCCC2c2cccnc2)c(=O)[nH]c1=S (stereo unspecified) | -17%
O=C1NC(=O)N(Cc2ccco2)C(=O)/C1=C/c1cccn1CCOc1ccccc1Cl | 28µM*
O=c1cccc2n1CC1CC2CN(S(=O)(=O)c2ccccc2)C1 (stereo unspecified) | -19%
C[C@H]1CCC[C@H](O)CCCCCc2cc(O)cc(O)c2C(=O)O1 | -3%&10%
CC/C(=N\N1CCCCCC1)c1c(O)n(-c2ccccc2C)c(=O)[nH]c1=O | -8%
CC(C)=CCSc1nnc([C@@H](N)Cc2c[nH]c3ccccc23)o1 | -7%
CC(C)OP(=O)(OC(C)C)C(O)c1ccc(Br)cc1 (stereo unspecified) | -5%
CC(=O)c1cccc(OCC(O)CN2CC=C(c3ccccc3)CC2)c1 (stereo unspecified) | -8%
Cc1cccc(-n2c(O)c(/C=C/C=Nc3ccccc3)c(=O)[nH]c2=O)c1 | -21%
C(#CCN1CCCC1)CN1CCCC1 | -4%
CCCCn1c(NC(=O)c2ccco2)c(C(=O)OCC)c2nc3ccccc3nc21 | ?
CCN(CC)c1ccc(N=Cc2c(O)n(Cc3ccccc3)c(=O)[nH]c2=O)cc1 | -19%&-13%
COc1ccc(C(C)=O)cc1CC(C(=O)c1ccc(C)c(C)c1)N(C)C (stereo unspecified) | 5%
CCN1CCN(Cc2cc(C(C)(C)C)c(O)c(C(C)(C)C)c2)CC1 | 3%
Cc1ccc2oc(-c3ccccc3)cc(=O)c2c1 | ?
O=c1cccc2n1CC1CC2CN(CCO)C1 (stereo unspecified) | -8%
CCOP(=O)(OCC)C(O)c1ccc(OC)c(OC)c1 (stereo unspecified) | 0%
Following part.
SMILES | HPGD block
CC(C)(Cc1c[nH]c2ccc(Cl)cc12)NCCOc1ccccc1OCC1CC1 | -6%
NC(N)=Nc1ccc2[nH]c3c(c2c1)C[C@@]1(O)[C@H]2Cc4ccc(O)c5c4[C@@]1(CCN2CC1CC1)[C@H]3O5 | 3.2µM*
COP(=O)(OC)c1nc(-c2cccc3ccccc23)oc1NCCc1ccccc1 | ?
COc1cc(C(=O)OC2C[C@H]3CC[C@@H](C2)N3C)ccc1O (stereo partly specified) | -2%
CCC(CO)Nc1ccc([N+](=O)[O-])c2cccnc12 (stereo unspecified) | -12%
COC(=O)N1CCN(C(=O)Cc2ccc(Cl)c(Cl)c2)[C@H](CN2CCCC2)C1 | -6%
Cc1cc(OCC(=O)Nc2c(C)n(C)n(-c3ccccc3)c2=O)c2c3c(c(=O)oc2c1)CCC3 | ?
Cc1ccccc1CN1CCN(c2ccc(Cl)cc2)CC1 | -4%
CCOc1ccc(-n2c(CC)nc3ccccc3c2=O)cc1 | -12%
CN(C)c1ccc(/C=C2\CC3C4CC=C5CC(O)CCC5(C)C4CCC3(C)C2=O)cc1 (stereo unspecified) | -17%
COc1ccc(Oc2cc(NC(=O)c3nn(C)cc3[N+](=O)[O-])cc([N+](=O)[O-])c2)cc1 | -6%
C=C1CC[C@H](O)C/C1=C/C=C1\CCC[C@]2(C)[C@H]1CC[C@H]2[C@@H](C)CCCC(C)C | -5%
Clc1cccc(C2NCCc3[nH]cnc32)c1 (stereo unspecified) | -17%
CCOc1cc(CNCCc2c[nH]c3ccccc23)cc(Cl)c1OCC | -4%
COc1ccc2c(c1O)-c1c(OC)c(OC)cc3c1[C@@H](C2)N(C)CC3 | -26%
C[C@@H]1CC[C@@H]2N(C1)C[C@H]1[C@@](O)([C@H](O)C[C@]3(O)[C@H]4CC[C@H]5[C@]6(O)O[C@]4(C[C@]13O)[C@@]5(C)CC[C@@H]6O)[C@@]2(C)O | -7%
N#Cc1ccccc1Cn1cc(C(=O)c2ccco2)c2ccccc21 | -22%
c1ccc(CCN2CCC(N3CCN(c4ccccc4)CC3)CC2)cc1 | 11%
CC(C)[N+](C)(CCC(C(N)=O)(c1ccccc1)c1ccccc1)C(C)C | -3%&-12%
CC(C)N1C(=O)c2ccccc2NS1(=O)=O | -21%
COc1ccc2c(c1OC)C(=O)OC2c1c(O)n(C2CCCCC2)c(=O)[nH]c1=O (stereo unspecified) | -8%
Fc1ccc2c(c1)nnn2C1CCN(Cc2nnnn2CCc2ccccc2)CC1 | -4%
CCN1C(=O)C(=Cc2cc(C)n(C3CC3)c2C)C(=O)N(CC)C1=S | -19%
CN1CCC2(CC1)NC(=O)C1=C(CN(C)CC1)N2 | -13%
Cc1ccc(S(=O)(=O)N2CCCC(C(=O)N3CCC4(CC3)OCCO4)C2)cc1 (stereo unspecified) | -10%
The list goes on:
SMILES | HPGD block
N#C/C(=C\c1ccc(O)c(O)c1)C(=O)NCCCNC(=O)/C(C#N)=C/c1ccc(O)c(O)c1 | 16µM*
O=C1CCCN1c1ccc(S(=O)(=O)O)cc1 (tested in a mixture with another compound) | 0%
CC1=C2[C@@H]3OC(=O)[C@@H](C)[C@@H]3CC[C@]2(C)C=CC1=O | -3%
Cc1c2cnn(CC(=O)N3CCC4(CC3)OCCO4)c(=O)c2c(C)n1Cc1ccc(F)cc1 | -10%
CC1(C)CC(n2[nH]c(=O)c3c2NC(=O)CSC3c2ccccc2)CCO1 (stereo unspecified) | -17%
O=C(N/N=C/c1c(O)n(-c2ccccc2)c(=O)[nH]c1=O)c1ccncc1 | ?
CC(C)NC(=O)N1CC[C@@]2(CCCNC2)C1 | -1%
O=C1/C(=C\c2ccc([N+](=O)[O-])cc2)N2CCC1CC2 | -14%
O=[As](O)(O)c1ccc(N=Nc2ccc(O)cc2)cc1 | -6%
CC(C)(C)N(NC(=O)c1ccccc1)C(=O)c1ccccc1 | -1%
CN(C)c1nc(OCCNC(=O)COc2ccc(Cl)cc2Cl)nc(N2CCCCC2)n1 | -9%
CN(C)C(=O)Nc1cccc(C(F)(F)F)c1 | -4%
O=C(Nc1cccc(F)c1)N1CC2(CCNCC2)C1 | -9%
